HNF4A DNA FP – change in binding of human HNF4A to DNA, primary screen, biochemical, fluorescence polarization, FITC-DNA; Hepatocyte nuclear factor 4-alpha (Homo sapiens), P41235; 1 h; activity change, % at 10 µM; 0.3% of 360,000 active; AID 1224865, 2016; in the data active = activity change above about 30%, passing the limit was not always enough;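 note: controls were the assay level and a saturating level of protein; the project sought stronger binding though the title names inhibitors; some compounds called inactive have numbers as strong as hits; positive values seem to mean higher polarization but the record does not say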
Target sequence (P41235 whole entry, looked up): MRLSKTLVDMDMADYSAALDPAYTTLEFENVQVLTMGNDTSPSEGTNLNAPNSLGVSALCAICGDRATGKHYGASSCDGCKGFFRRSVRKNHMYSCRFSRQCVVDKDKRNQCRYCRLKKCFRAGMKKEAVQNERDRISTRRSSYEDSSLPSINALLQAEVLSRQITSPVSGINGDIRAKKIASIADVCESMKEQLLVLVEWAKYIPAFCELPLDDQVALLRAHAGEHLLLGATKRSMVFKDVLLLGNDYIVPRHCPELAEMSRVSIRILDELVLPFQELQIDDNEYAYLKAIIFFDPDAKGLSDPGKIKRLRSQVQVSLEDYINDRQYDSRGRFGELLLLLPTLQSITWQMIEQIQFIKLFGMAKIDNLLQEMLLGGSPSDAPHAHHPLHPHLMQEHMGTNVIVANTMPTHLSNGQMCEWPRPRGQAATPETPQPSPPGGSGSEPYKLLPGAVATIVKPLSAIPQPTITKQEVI
E coli growth – E. coli growth inhibition, primary screen, OD600; Escherichia coli growth, 23 h; stronger effect = lower value; OD600 absorbance (concentration not given with the values); 0.21% of 330,000 active; AID 1053175, 2014;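 active = OD600 absorbance below the run mean of sample wells minus 3.6 SD, in any replicate, cut at about 0.56 in these data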;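 note: stock transfer was 300 nL into about 60 µL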
UCH37 inh – inhibitors of human UCH37 deubiquitinase, primary screen, biochemical, Ub-AMC cleavage, fluorescence. Ubiquitin carboxyl-terminal hydrolase isozyme L5 (Homo sapiens), Q9Y5K5. purified proteasome/UCH37. inhibition, % (test concentration not listed). 0.33% of 330,000 active;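 active = mean of two replicates above 20%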;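 note: 0% = compound-free wells with enzyme and 100% = wells lacking proteasome; stock transfer was 100 nL into about 20 µL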
Target sequence (Q9Y5K5 whole entry, looked up): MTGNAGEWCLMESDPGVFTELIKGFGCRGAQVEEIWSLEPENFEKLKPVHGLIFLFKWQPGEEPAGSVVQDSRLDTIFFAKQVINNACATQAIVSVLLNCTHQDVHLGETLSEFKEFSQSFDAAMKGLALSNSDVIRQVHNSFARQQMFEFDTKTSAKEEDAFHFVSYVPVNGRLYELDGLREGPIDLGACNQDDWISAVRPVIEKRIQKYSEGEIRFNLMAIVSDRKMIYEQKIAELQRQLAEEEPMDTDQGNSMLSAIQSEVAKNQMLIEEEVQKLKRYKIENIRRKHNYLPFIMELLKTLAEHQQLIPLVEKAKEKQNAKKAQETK
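Assay system: Proteasome-bound UCH37. Buffer or medium: pH 7.4 Tris-HCl (50 mM) with ovalbumin, ATP-MgCl2, DTT. Incubation: 30 min preincubation with enzyme, 25 min cleavage at room temperature. Measured by: fluorescence, ex 355 nm, em 460 nm. Read-out basis: percent inhibition. Control set: wells without proteasome as full block, compound-free enzyme plus substrate as uninhibited.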
Ecoli rRNA inh – reduced GFP signal of wild-type E. coli, primary screen, bacterial rRNA inhibitor project, GFP/RFP fluorescence, OD600, single point; E. coli WT GFP vs humanized-ribosome RFP mutants, 24 h; stronger effect = lower value; DMSO median 0, no signal -100; GFP signal change (wild-type ribosome), % (no concentration beside the values); 1.6% of 350,000 active; AID 720706, 2013;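 active = significant combined selectivity score with lowered wild-type GFP, culture density cut under 30%, mutant RFP and density less affected; inactive = any of these conditions unmet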; note: one replicate is shown; some compounds called inactive have numbers as strong as hits
B2AR ag – beta2AR agonists driving receptor internalization, primary screen, cell-based, FAP fluorogen, flow cytometry; Beta-2 adrenergic receptor (Homo sapiens), P07550; Am2.2-beta2AR cells; reference of the scale not given here; response, % (concentration not given with the values); 0.43% of 340,000 active; AID 504454, 2011;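 active = response above a set limit, near 3 SD of response in nonfluorescent compounds, cut at about 42% in these data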;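 note: stock transfer was 100 nL into about 11 µL; a reference agonist was the positive control; negative values mostly stem from fluorescent compounds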
FGF22 binding – binders of human FGF22 protein, primary screen, FGF22 synaptogenesis inhibitor project, biophysical, thermal shift, single point; recombinant FGF22 thermal shift, SYPRO orange fluorescence; percent of sucrose octasulfate shift, DMSO zero; calls only at 9.99 µM; 1.5% of 340,000 active; AID 651658, 2012;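 active = melting point raised past a set limit in the mean and every replicate; three in four hits are not shown here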
Target sequence (Q9HCT0 whole entry, looked up): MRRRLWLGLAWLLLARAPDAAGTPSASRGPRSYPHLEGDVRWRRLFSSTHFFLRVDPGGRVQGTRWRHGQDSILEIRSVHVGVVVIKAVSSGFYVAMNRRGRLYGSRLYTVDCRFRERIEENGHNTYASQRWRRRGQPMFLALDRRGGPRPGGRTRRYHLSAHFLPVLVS
ALR H2O2 inh – inhibitors of human ALR sulfhydryl oxidase, primary screen, biochemical, H2O2 detection, HRP-luminol luminescence, single point. inhibition, % (concentration not given with the values). 3.8% of 290,000 active. purified ALR, DTT oxidation;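 active = mean and each replicate at 75% or more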;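 note: stock transfer was 7.5 nL into about 7.5 µL; 0% = neutral wells and 100% = wells with inactivated enzyme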
Ecoli rRNA inh OD600 – also measured in Ecoli rRNA inh; calls as there; OD600 change, %; measured here: OD600 growth;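 optical density of the mix in the first replicate; 0 = DMSO median and -100 = no signal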
Ecoli rRNA inh RFP – also measured in Ecoli rRNA inh; calls as there; RFP signal change, %; measured here: RFP humanized mutant strains;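 first replicate; 0 = DMSO median and -100 = no signal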
Starred values were filed as active, the others as inactive; i = inactive; nt = not tested or not shown. An excerpt; rates above refer to the full screens.

SMILES | HNF4A DNA FP | E coli growth | UCH37 inh | Ecoli rRNA inh | Ecoli rRNA inh OD600 | Ecoli rRNA inh RFP | B2AR ag | FGF22 binding | ALR H2O2 inh
Cc1ccc(CNC(=O)c2nn(C)c3c2CS(=O)(=O)c2ccccc2-3)cc1 | -5.2 | 0.68 | 2.0 | -7 | -12 | -2.5 | 4 | i | 2
COc1ccc(C(=O)NCCSCc2ccc(Cl)cc2)cc1OC | 4.2 | 0.65 | 1.3 | -14 | -5 | 3.5 | 2 | i | -30
CCS(=O)(=O)N1CCCC(C(=O)NCc2ccc3c(c2)OCO3)C1 (stereo unspecified) | -0.8 | 0.71 | -1.4 | nt | nt | nt | 11 | nt | -9
O=[N+]([O-])c1ccc(N2CCNCC2)c(S(=O)(=O)N2CCOCC2)c1 | 3.0 | 0.67 | 6.0 | nt | nt | nt | -2 | i | -19
CN1CCN(/N=C/c2ccc(-c3ccc([N+](=O)[O-])cc3Cl)o2)CC1 | 15 | nt | nt | -13 | -6 | -1.4 | -1 | i | 30
O=C(CN(c1cccc([N+](=O)[O-])c1)S(=O)(=O)c1ccccc1)NCc1ccccc1 | 1.8 | 0.67 | 0.3 | -1 | 3 | -7.3 | 10 | i | -1
C=CCOc1c(Cl)cc(CNCCCN2CCOCC2)cc1OC | 1.5 | nt | nt | 17 | 9 | 0.4 | -3 | i | -1
O=C(NCCNC(=O)c1cc(Cl)ccc1Cl)c1ccccn1 | -1.2 | 0.69 | 3.4 | -6 | 2 | -4.7 | -1 | i | 0
CC1=Nn2c(nnc2-c2ccc(F)cc2)SC1 | -1.0 | 0.72 | 3.6 | nt | nt | nt | -2 | nt | 3
C[C@@H]1CC2OC(=O)[C@@]3(C)C(=O)CC[C@@](C)(C23)[C@@]1(O)CCc1ccoc1 (stereo partly specified) | 0.3 | 0.65 | -1.6 | 5 | 11 | 1.7 | 2 | i | nt
CN(C)c1cccc(C(=O)Nc2nc3ccccc3[nH]2)c1 | -2.3 | 0.66 | -37 | -66 | -71 | -17 | -13 | i | 41
Cc1ccc(C(=O)Oc2coc(CSc3nnc(NC(=O)c4cccs4)s3)cc2=O)cc1C | 1.0 | 0.69 | -17 | nt | nt | nt | 11 | nt | 1
CCc1cccc(CC)c1N1C(=O)CC(Sc2ccccc2N)C1=O (stereo unspecified) | 2.6 | nt | nt | -7 | 0 | 3.8 | nt | i | nt
O=C(O)CCC(=O)NCCc1cccc(Cl)c1 | 4.4 | 0.68 | 2.7 | -6 | -5 | -3.3 | 1 | i | -3
CC(C)CN1C2CCCC1CC(NC(=O)c1ccc([N+](=O)[O-])cc1)C2 (stereo unspecified) | -3.6 | 0.71 | 6.2 | 17 | 7 | -2.9 | 0 | i | -28

4 entries out of the list, ordered by heavy-atom count, low to high.
SMILES | HNF4A DNA FP | E coli growth | UCH37 inh | Ecoli rRNA inh | Ecoli rRNA inh OD600 | Ecoli rRNA inh RFP | B2AR ag | FGF22 binding | ALR H2O2 inh
O=C(O)CCC(=O)NCCc1cccc(Cl)c1 | 4.4 | 0.68 | 2.7 | -6 | -5 | -3.3 | 1 | i | -3
O=[N+]([O-])c1ccc(N2CCNCC2)c(S(=O)(=O)N2CCOCC2)c1 | 3.0 | 0.67 | 6.0 | nt | nt | nt | -2 | i | -19
C[C@@H]1CC2OC(=O)[C@@]3(C)C(=O)CC[C@@](C)(C23)[C@@]1(O)CCc1ccoc1 (stereo partly specified) | 0.3 | 0.65 | -1.6 | 5 | 11 | 1.7 | 2 | i | nt
Cc1ccc(CNC(=O)c2nn(C)c3c2CS(=O)(=O)c2ccccc2-3)cc1 | -5.2 | 0.68 | 2.0 | -7 | -12 | -2.5 | 4 | i | 2

Additional entries follow.
SMILES | HNF4A DNA FP | E coli growth | UCH37 inh | Ecoli rRNA inh | Ecoli rRNA inh OD600 | Ecoli rRNA inh RFP | B2AR ag | FGF22 binding | ALR H2O2 inh
CC1CCN(CC(=O)Nc2ccc(Cl)cc2[N+](=O)[O-])CC1 | 3.2 | 0.68 | 7.7 | -5 | -1 | 1.7 | 0 | i | nt
Cc1ccc2nc(NC(=O)COC(=O)c3ccncc3)sc2c1 | 2.0 | 0.74 | -1.8 | 0 | -4 | -1.0 | -6 | i | -4
Cc1ccc(NC(=O)C(C)OC(=O)CCN=C2NS(=O)(=O)c3ccccc32)cc1 (stereo unspecified) | 1.8 | 0.69 | 1.4 | -5 | -7 | 2.2 | 8 | i | -2
CC(=O)N1CCC2(CC1)C(C#N)=C(N)Oc1n[nH]c(CSc3ccc(C)cc3)c12 | 3.6 | 0.72 | 3.1 | nt | nt | nt | 2 | nt | 42
C#CCSc1nnc(-c2ccccc2)c(=O)[nH]1 | -0.5 | 0.65 | 3.8 | nt | nt | nt | 2 | nt | 14
Cc1ccccc1N1CCN(c2ncnc3scc(-c4cccs4)c23)CC1 | -0.5 | 0.71 | 3.3 | 18 | 13 | 2.7 | 9 | nt | nt
COc1ccc(Cl)cc1NC(=O)CCN1C(=O)C2CC=CCC2C1=O (stereo unspecified) | 0.7 | 0.65 | 1.1 | 1 | 2 | -2.3 | 4 | i | -2
COC(=O)c1c(Cl)c2n3ccccc3c(C)c(-c3ccccc3)c-2c1C(=O)OC | -19 | 0.68 | 3.9 | 18 | 9 | 7.7 | 2 | i | nt
COc1cccc(/C=C/C(=O)OCC(=O)NCCC2=CCCCC2)c1 | 0.4 | 0.68 | -6.7 | -12 | 3 | 1.4 | -1 | i | nt
CC1CC1C(=O)OCC(=O)NCc1ccccc1 (stereo unspecified) | -1.8 | 0.71 | 1.6 | 4 | 13 | -0.4 | 6 | i | -6
COc1ccc(-c2ccc3c(N)c(C(=O)c4cccc(OC)c4)sc3n2)cc1 | 13 | 0.7 | -12 | nt | nt | nt | 5 | nt | 47
C=CCn1c(CSCc2ccc(C)cc2)nnc1SCC(=O)NCc1ccccc1 | 1.9 | 0.74 | 1.2 | nt | nt | nt | 0 | nt | -30
COC(=O)c1ccc(-n2cc(-c3ccc(OC)cc3)[nH]c2=S)cc1 | 30 | 0.64 | 9.6 | nt | nt | nt | 0 | nt | 88*
CC(Sc1nnc(Cc2ccccc2)o1)C(=O)Nc1ccccc1[N+](=O)[O-] (stereo unspecified) | 4.5 | 0.66 | 3.0 | 3 | 14 | -2.2 | -3 | i | 4
O=C1C2C(C(=O)N1c1nccs1)C1C=CC2C12CC2 (stereo unspecified) | 4.5 | 0.68 | 4.3 | 11 | 12 | 1.4 | 5 | i | -3

Record cards (already shown):
CC(Sc1nnc(Cc2ccccc2)o1)C(=O)Nc1ccccc1[N+](=O)[O-] (stereo unspecified) is entered as HNF4A DNA FP: 4.5; E coli growth: 0.66; UCH37 inh: 3.0; Ecoli rRNA inh: 3; Ecoli rRNA inh OD600: 14; Ecoli rRNA inh RFP: -2.2; B2AR ag: -3; FGF22 binding: i; ALR H2O2 inh: 4
COc1cccc(/C=C/C(=O)OCC(=O)NCCC2=CCCCC2)c1 is entered as HNF4A DNA FP: 0.4; E coli growth: 0.68; UCH37 inh: -6.7; Ecoli rRNA inh: -12; Ecoli rRNA inh OD600: 3; Ecoli rRNA inh RFP: 1.4; B2AR ag: -1; FGF22 binding: i; ALR H2O2 inh: nt

The list goes on.
SMILES | HNF4A DNA FP | E coli growth | UCH37 inh | Ecoli rRNA inh | Ecoli rRNA inh OD600 | Ecoli rRNA inh RFP | B2AR ag | FGF22 binding | ALR H2O2 inh
O=C(O)c1ccc2c3c(ncnc13)-c1ccccc1C2=O | nt | 0.7 | -0.1 | nt | nt | nt | nt | nt | -23
COc1cc(CC(=O)Nc2ccccc2N2CCCCC2)cc(OC)c1OC | -2.3 | 0.65 | -0.6 | -40 | -41 | -11 | 7 | nt | 0
CC1CCCC(NCC(=O)Nc2ccc(C(N)=O)cc2)C1C (stereo unspecified) | 1.0 | 0.66 | 0.6 | 15 | 13 | 1.4 | 3 | i | -6
CC(C)c1ccc(CCNC(=O)CCNS(=O)(=O)c2ccc(Br)cc2)cc1 | 4.2 | 0.69 | 4.9 | 13 | 12 | 0.3 | 6 | i | 2
O=C(NCCN1CCOCC1)c1cc([N+](=O)[O-])cc([N+](=O)[O-])c1 | 3.0 | 0.63 | 1.6 | -3 | 4 | 2.3 | -1 | i | -33
Cc1ccc(S(=O)(=O)N2CCC(=O)N(C(COCc3cccc(C(F)(F)F)c3)Cc3ccccc3)CC2)cc1 (stereo unspecified) | -1.6 | 0.74 | 1.8 | -1 | 4 | -4.2 | 10 | i | -10
Cc1cccc(-n2ccnc2SCC(=O)Nc2nccs2)c1C | -2.2 | 0.76 | 1.6 | nt | nt | nt | -40 | nt | 7
COc1ccc(C(=O)CC(c2ccccc2)C2C(=O)CCCC2=O)cc1 (stereo unspecified) | -6.6 | 0.69 | 5.6 | nt | nt | nt | -9 | nt | -2
Cc1ccc(/C=N/NC(=O)c2cc3c(ccc4ccccc43)o2)o1 | 6.8 | nt | nt | nt | nt | nt | 11 | i | nt
C=CCSc1nc2c(c(C3CC=CCC3)c1C#N)CCC2 (stereo unspecified) | 1.5 | 0.68 | 2.5 | nt | nt | nt | -2 | nt | 6
O=C(CSc1nc2c(sc3ccccc32)c(=O)n1CCO)NCC1CCCO1 (stereo unspecified) | 1.1 | 0.7 | 4.5 | nt | nt | nt | -10 | nt | nt
CCCNC(=O)NC(=O)CSc1nc2ccccc2n1CC(C)C | -1.6 | 0.71 | 4.4 | -16 | -3 | 0.0 | -5 | i | -5
Cn1cccc1C(=O)NC(=O)COC(=O)c1ccccc1Sc1ccccc1C#N | 0.8 | 0.77 | 2.1 | nt | nt | nt | -6 | nt | -6
CNC(=O)C1CCN(S(=O)(=O)c2c(C)noc2/C=C/c2cccc(C)c2)CC1 | -3.2 | 0.7 | -14 | 4 | 11 | -0.6 | 8 | i | -5
O=C(NC1=CC(=O)c2ccccc2C1=O)c1ccccc1 | -3.4 | 0.57 | 18 | -62 | -79 | -19 | 84* | i | nt
CN(CC(=O)Nc1ccc(F)cc1)S(=O)(=O)c1ccc2c(c1)c(=O)n(C)c(=O)n2C | 2.1 | 0.63 | 4.6 | 2 | 8 | -1.2 | 4 | i | -3
CCS(=O)(=O)c1ccc2oc(SCC(=O)NCCc3ccccc3)nc2c1 | 0.5 | 0.68 | 2.0 | 9 | 12 | -1.3 | -6 | i | -8
c1ccc(CSc2ccc3nnc(-c4cccnc4)n3n2)cc1 | 1.3 | 0.72 | -2.9 | 5 | 5 | 6.5 | -8 | i | nt
O=C(O)CCSc1nnnn1-c1ccccc1 | -1.6 | 0.74 | 3.4 | nt | nt | nt | 1 | nt | -3
CC1=C(C(=O)Nc2ccc(C)cc2C)C(c2cccc(Cl)c2)n2nc(C(=O)OC(C)C)nc2N1 (stereo unspecified) | -1.3 | 0.65 | 2.5 | 4 | 9 | 3.2 | 0 | i | 0
Nc1nonc1-c1noc(-c2ccc(Br)o2)n1 | 1.7 | 0.71 | 1.2 | nt | nt | nt | -10 | nt | 0
O=S(=O)(c1ccc(OCC(O)CN2CCCC2)cc1)N1CCOCC1 (stereo unspecified) | 2.0 | 0.69 | 5.3 | nt | nt | nt | 0 | nt | 1
CCOC(=O)C1CC(=NO)c2ccc(OC)c(OC)c2C1 (stereo unspecified) | -2.5 | nt | nt | -3 | -6 | 4.3 | nt | i | nt
CN(c1cccc(NC(=O)Nc2ccc(Cl)cc2)c1)S(C)(=O)=O | 3.4 | 0.66 | -0.1 | nt | nt | nt | 4 | nt | 10

Screening data: PubChem, several laboratories
